Compound activity deposited in PubChem BioAssay by National Center for Advancing Translational Sciences (NCATS).
StopGo reporter = lowers the luciferase signal of an FMDV 2A StopGo reporter; human cells with a luciferase reporter of 2A StopGo recoding; control for the full effect not named in the record; Potency, µM (series often up to 57.9 µM), for inactives: top-dose signal change, negative = less light; actives 1.2% (n = 410,000); AID 1159524; active = well fitted falling curve with a large enough effect; inconclusive = small, poorly fitted or top-dose-only effect; inactive = no such curve, though single readings can be large or run the other way; tested in HEK293T cells; also: % is scaled to controls: 0 for no effect and ±100 for the full control effect; nearly all actives have a fitted effect of over 45% in size; luciferase light after 4 h
Cruzain inh Det = cruzain (T. cruzi) inhibition with detergent | purified cruzain, Z-FR-AMC fluorescence, 0.01% Triton | AID 1478 | P25779 | actives 0.43% (n = 200,000) | Potency, µM, inactives show max response, negative = inhibition, usual class: inhibitors;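 also: plate controls were neutral wells for no effect and buffer without enzyme for full effect; nearly all actives have a fitted effect of over 40% in size; top concentration of the series not given in the record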
Target sequence (P25779 123-467 limits assumed): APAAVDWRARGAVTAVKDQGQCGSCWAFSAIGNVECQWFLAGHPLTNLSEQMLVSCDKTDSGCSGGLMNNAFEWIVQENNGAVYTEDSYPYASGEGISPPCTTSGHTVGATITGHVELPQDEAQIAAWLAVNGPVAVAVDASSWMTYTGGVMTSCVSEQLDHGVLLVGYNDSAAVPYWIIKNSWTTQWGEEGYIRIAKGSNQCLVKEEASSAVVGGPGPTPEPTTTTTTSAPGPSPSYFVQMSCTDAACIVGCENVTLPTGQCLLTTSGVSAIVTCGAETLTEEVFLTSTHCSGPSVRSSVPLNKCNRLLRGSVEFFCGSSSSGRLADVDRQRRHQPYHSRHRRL
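Steps: dispense cruzain (1.5 nM final) in acetate buffer pH 5.5 with DTT and 0.01% Triton X-100; pin-transfer compounds; incubate 15 min RT; add Z-FR-AMC (2 uM final); read fluorescence every 30 s, using the 60 s intensity change.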
RE007 growth inh = less growth of the S. pombe RE007 Vpr strain; Potency, µM (top dose mostly 92.2 µM), without a hit: at the highest dose activity change, negative = less growth; S. pombe RE007 Vpr strain, BacTiter-Glo ATP luminescence, 24 h; control for the full effect not named in the record; AID 651644; actives 0.21% (n = 360,000); active = well fitted falling curve with a large enough effect; inconclusive = small, poorly fitted or top-dose-only effect; inactive = no such curve, though single readings can be large or run the other way;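 also: % is scaled to controls: 0 for no effect and ±100 for the full control effect; nearly all actives have a fitted effect of over 50% in size; the assay follows cell death caused by Vpr and the record does not say whether a fall means rescue or toxicity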
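Fission yeast strain RE007, carrying one chromosomally integrated HIV-1 vpr copy, was seeded at OD 0.01 in PMG+AL medium with 23 nL pinned compound. After 24 h at 30 °C and 99% humidity, viability was read by BacTiter-Glo luminescence.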
Lassa entry inh = blocks Lassa virus binding to or entry into cells | Lassa virus pseudotype entry inhibition, cell reporter; control for the full effect not named in the record | Potency, µM (titrated, usually from 37.9 µM), without a hit: at the highest dose activity change, negative = inhibition, hits mostly inhibitors | actives 1.2% (n = 300,000) | AID 540256; active means well fitted inhibition curve with a large enough effect; inconclusive means small, poorly fitted or top-dose-only effect, or effect the other way; inactive means flat fitted curve, though single readings scatter; tested in HEK293 cells; also: % is scaled to controls: 0 for no effect and ±100 for the full control effect; nearly all actives have a fitted effect of over 50% in size; luciferase read-out
Cruzain noTriton = blocks cruzain activity in detergent-free assay; purified cruzain, Z-FR-AMC fluorescence, no detergent; Potency, µM, without a hit: max response, negative = inhibition, most hits filed as inhibitors; actives 2.3% (n = 200,000); AID 1476;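 also: plate controls were enzyme without inhibitor for no effect and buffer without enzyme for full effect; nearly all actives have a fitted effect of over 40% in size; top concentration of the series not given in the record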
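Detergent-free condition (0.00005% Triton X-100) in acetate buffer pH 5.5 with DTT. 1.5 nM enzyme and compound were pre-mixed 15 min, then 2 uM Z-FR-AMC substrate added; reaction progress from fluorescence change between first and third reads (60 s).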
MARV entry inh = Marburg virus entry inhibition; Marburg virus pseudotyped entry inhibition, cell reporter; control for the full effect not named in the record; about a third of the inactives were read at about 46 µM; Potency, µM (highest dose often 37.8 µM), inactives show at the highest dose activity change, negative = inhibition, usual class: inhibitors; actives 1.8% (n = 300,000); active = well fitted inhibition curve with a large enough effect; inconclusive = small, poorly fitted or top-dose-only effect, or effect the other way; inactive = flat fitted curve, though single readings scatter; tested in HEK293 cells; about a fifth of its hits are not listed in these tables; also: % is scaled to controls: 0 for no effect and ±100 for the full control effect; luciferase read-out
NS1 function inh = inhibitors of influenza NS1 protein function | S. cerevisiae slowed by influenza A NS1, growth recovery by OD600 | Potency, µM (highest dose often 46.1 µM), inactives show at the top dose activity, positive = more growth | actives 0.4% (n = 270,000); active means well fitted rising curve with a large enough effect; inconclusive means small, poorly fitted or top-dose-only effect; inactive means no such curve, though single readings can be large or run the other way; also: nearly all actives have a fitted effect of over 50% in size
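Recovery from NS1-induced slow growth read by OD600 in budding yeast switched to galactose assay medium (pH 6.0, -URA) at 1:100 dilution. Compound 23 nl per well; the matching strain lacking NS1 serves as control.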
SARS PLpro yeast = inhibitors of SARS-CoV papain-like protease in yeast; S. cerevisiae expressing SARS-CoV PLpro, growth rescue; control for the full effect not named in the record; Potency, µM (titrated, usually from 32.9 µM), inactives show top-dose activity, positive = growth rescue; actives 0.19% (n = 330,000); AID 485353; active means well fitted rising curve with a large enough effect; inconclusive means small, poorly fitted or top-dose-only effect; inactive means no such curve, though single readings can be large or run the other way; also: 0% is about no effect; nearly all actives have a fitted effect of over 55% in size; growth read by luminescence after 48 h
Numbers without * were called inactive; ? = inconclusive; . = no result given; & = joins results of further samples; [ ] = remark or other dose. Unless noted, calls follow the shape of the dose curve; as a rule, active = well fitted curve in the direction sought with a large enough effect; inconclusive = small, poorly fitted or top-dose-only effect, or another doubt; inactive = no such curve, though single readings can be large; an effect the other way counts as inactive or inconclusive. Potency is read from the fitted curve at half-maximal effect.

SMILES	StopGo reporter	Cruzain inh Det	RE007 growth inh	Lassa entry inh	Cruzain noTriton	MARV entry inh	NS1 function inh	SARS PLpro yeast
COc1ccc(-n2nnnc2Sc2ccc(S(=O)(=O)N3CCOCC3)cn2)cc1	-15%	-6.5%	4%	-2%	3%	2%&2%	-9%	2%
COc1cc(NC(=O)Cn2ccn(-c3cc(C)cc(C)c3)c(=O)c2=O)cc(OC)c1	-2%	-7.8%	.	-1%[46.1 µM]	-15%	.	.	.
Cc1ccc2nc(-c3ccncc3)cc(C(=O)N3CCOCC3)c2c1	-12%	.	-7%	10%	.	5%	-12%	-2%
CCN(Cc1ccccc1)C(=O)Cn1c(=O)n(-c2ccccc2)c(=O)c2c1c1cc(C)ccc1n2C	?	0.0%	.	6%[46.1 µM]	-7%	.	.	.
Cc1cc(OCC(=O)Nc2ccncc2)ccc1Cl	?	.	-3%	?	.	-9%	-56%	-9%
CCc1noc(N)c1C(=O)Nc1ccc(F)c(Cl)c1	-2%	2.9%	13%	29%	-9%	8%	7%	-4%
Cc1c(C)n(Cc2ccc(Cl)cc2)c2ccc(C(=O)NCCc3ccc(S(N)(=O)=O)cc3)cc12	?	3.3%	.	-15%[46.1 µM]	-27%	.	.	.
Cc1occc1C(=O)N1CCCC(N2CCN(c3cccc(Cl)c3)CC2)C1 (centres undefined)	-24%	.	2%	-21%	.	-18%	5%	?
COc1ccccc1N1CCN(C(=O)c2cc(-c3ccc(F)cc3)on2)CC1	-17%&-4%	-2.3%	4%	3%&-12%[46.1 µM]	-5%	?	-4%	-3%
CC(Oc1ccc(Cl)cc1Cl)C(=O)Nc1ncccn1 (centres undefined)	32%[activator]	-3.6%	10%	?	-12%	4%&0%	-58%	-32%
Cc1ccc(-c2ccc(C(=O)NCCCNC(=O)c3cnccn3)o2)cc1Cl	0%	.	-4%	?	.	14%[46.1 µM]	-2%	-3%
O=C(CSc1ccccc1C(=O)N1CCN(c2ccc([N+](=O)[O-])cc2)CC1)N1CCCC1	?	.	25%	-10%	.	?	.	1%
COc1ccccc1C(=O)Nc1ccnn1C1CCN(C(=O)c2ccoc2)CC1	16%	.	-11%	6%	.	22%	.	.
CCOc1ccccc1NC(=O)COc1coc(CN2CCc3ccccc32)cc1=O	-2%	.	11%	-29%	.	?	.	-3%
Cc1ccccc1SCc1noc(C(=O)NC(C)C)c1C(=O)O	-1%	3.1%	-6%	.	1%	.	27%	5%
Cc1ccc(C)c(NS(=O)(=O)c2ccc(OCC(=O)NCC3CCCO3)cc2)c1 (centres undefined)	0%	.	6%	?	.	-14%[46.1 µM]	.	-1%
CC1CCN(C(=O)C2CCCN(S(=O)(=O)c3ccc4c(c3)CC(C)N4C(=O)C3CC3)C2)CC1 (centres undefined)	?	.	-6%	.	.	.	-27%	0%
COc1ccc(-c2cc(=Nc3cccc(C(=O)O)c3)c3cc(C)ccc3o2)cc1	40%[activator]	.	-16%	?	.	?	.	-3%
Cc1ccccc1C(=O)Oc1ccccc1C(=O)N1CCOCC1	-12%	-0.4%	-4%	3%	-13%	7%	1%	8%
CCOC(=O)N1CCN(Cc2nc(Cc3cccc(F)c3)no2)CC1	16%	.	-5%	-11%	.	4%[46.1 µM]	-2%	-4%
Cc1ccc(C2=Nn3c(COc4ccc(Cl)cc4)nnc3SC2CC(=O)O)cc1 (centres undefined)	-2%	.	9%	?	.	6%[46.1 µM]	?	7%
CCC(=O)N1c2ccccc2CC1C(=O)NCCCN1CCN(c2ccc(F)cc2)CC1 (centres undefined)	-17%	0.3%	.	2%[46.1 µM]	4%	.	.	.
N/C(=N\OC(=O)c1cc([N+](=O)[O-])ccc1Cl)c1ccccn1	-14%	.	28%	?	.	?	2%	1%
COc1cc(C(=O)Nc2nc3ccc(S(C)(=O)=O)cc3s2)cc(OC)c1C	?	.	19%	?	.	6%	2%	-1%
CCOC(=O)c1[nH]c2ccccc2c1NC(=O)CC	12%	-0.5%	1%	.	-1%	.	-4%	3%
CC(=O)c1ccc(NC(=O)Cn2ncc3c4ccccc4n(Cc4ccccc4)c3c2=O)cc1	1%	-4.5%	.	-11%[46.1 µM]	?	-15%[46.1 µM]	.	.
O=C(COc1ccc(/C=N/NS(=O)(=O)c2ccccc2)cc1)Nc1ccccc1	78%[activator]	0.4%	-11%	2%	-15%	16%	5%	5%
COc1ccc(N2CCN(S(=O)(=O)c3c(C)nc4sccn4c3=O)CC2)cc1	-9%	.	4%	.	.	.	-9%	-5%
COc1ccc(CCNC(=O)CN(c2cccc([N+](=O)[O-])c2)S(C)(=O)=O)cc1OC	0%	.	2%	.	.	.	1%	1%
O=C(COc1ccc(C(=O)NCc2cccnc2)cc1)Nc1cccc(C(F)(F)F)c1	?	.	7%	-21%	.	?	.	-1%
COc1ccc(C2C(C#N)=C(C)NC(C)=C2C#N)c(OC)c1	4%	.	5%	0%	.	10%[46.1 µM]	.	2%
CCC1=C(c2ccc(C)cc2)S(=O)(=O)N=C1N1CCC(C(=O)NCc2ccccc2Cl)CC1	-22%	-4.7%	.	.	1%	?	.	.
CCc1cccc(NC(=O)Cn2cc(C(=O)c3ccncc3)c(=O)c3cc(C)c(C)cc32)c1	-17%	-5.8%	.	12%[46.1 µM]	28%	.	.	.
CCOC(=O)C(NC(=O)CC)(Nc1sc2c(c1C(=O)OC)CCN(C)C2)C(F)(F)F (centres undefined)	-23%	2.1%	-7%	0%	-2%	?	-4%	4%
CCS(=O)CC(=O)Nc1c(-c2ccccc2)oc2ccccc2c1=O (centres undefined)	5%	.	8%	-5%	.	-1%[14.2 µM]	0%	0%
COc1ccc(/C=N/NC(=O)c2ccccc2O)cc1Cn1cc(Cl)cn1	-3%	-7.1%	12%	14%	?	?	12%	2%
CCCNc1c(NS(=O)(=O)c2ccc(Cl)s2)c(=O)oc2ccccc12	-10%	.	3%	.	.	.	5%	1%
CCOc1ccc(Br)cc1C1NC(=O)c2c(sc3c2CCN(C)C3)N1 (centres undefined)	1%	-5.3%	.	2%[46.1 µM]	-6%	1%&1%[46.1 µM]	.	.
Cc1ccsc1/C=N/NC(=O)Cc1cc(=O)[nH][nH]1	26%	.	-6%	.	.	.	14%	0%
Fc1ccc(Nc2nc(-c3cccnc3)cs2)cc1	15%	.	-8%	.	.	.	-10%	3%
CN(C)Cc1c(C(=O)N/N=C/c2cccs2)nnn1-c1nonc1N	-13%	.	12%	1%	.	19%[46.1 µM]	5%	7%
CC(C)CC1c2[nH]c3ccccc3c2CCN1CCCn1cccn1 (centres undefined)	-20%	.	4%	11µM*	.	4.5µM*	-9%	0%
O=C(NCC1CCCN1S(=O)(=O)c1cccs1)c1ccc([N+](=O)[O-])cc1 (centres undefined)	-16%	.	-12%	1%	.	-16%[46.1 µM]	.	1%
Cc1ccccc1Cn1c(=O)n(CC2CCC(C(=O)N3CCOCC3)CC2)c(=O)c2sccc21 (centres undefined)	-21%	0.1%	.	-5%[46.1 µM]	0%	.	.	.
COCCN(CC(=O)NC1CCCCC1)C(=O)CSc1nc2ccccc2o1	5%	3.5%	16%	7%	-2%	-4%	-11%	2%
Cc1ccc(C(=O)N[C@H](C(=O)Nc2cc(Cl)cc(Cl)c2)C(C)C)cc1	3%	-1.2%	-15%	3%	1%	-8%	3%	-11%
CCS(=O)(=O)c1ccc(C(=O)Nc2cccc(Cl)c2)c(Cl)c1Cl	28µM*	-6.5%	4%	?	-9%	?	-7%	?
CCOc1ccc(C(O)Cn2c(=N)n(CCN3CCCCC3)c3ccccc32)cc1 (centres undefined)	-30%	0.2%	-2%	?	-6%	18µM*	1%	3%
CCc1ccc(Nc2nc(N3CCOCC3)nc(N3CCOCC3)n2)cc1	-24%	.	0%	.	.	.	1%	-4%
COC(=O)c1cccc(Nc2nn3c(=O)c4cc5c(cc4nc3s2)OCO5)c1	-19%	-0.3%	.	17%[46.1 µM]	2%	28%[46.1 µM]	.	.

(list continues)
SMILES	StopGo reporter	Cruzain inh Det	RE007 growth inh	Lassa entry inh	Cruzain noTriton	MARV entry inh	NS1 function inh	SARS PLpro yeast
CCCCN1CC(=O)N2[C@H](c3ccc(Cl)cc3)[C@@H]3C(=O)N(CC)C(=O)[C@@H]3[C@]2(C)C1=O	-8%	.	7%	.	.	.	7%	0%
CCCCCC1C(=O)CCC1CC(=O)OC (centres undefined)	-10%&-5%	4.0%	5%	.	-5%	.	.	.
CCOC(=O)N1CCN(c2c(NCC3CCN(Cc4cccc(C)c4)CC3)c(=O)c2=O)CC1	-6%	-2.2%	-7%	.	-9%	6%	7%	1%
COC(=O)C1CN(C(=O)COc2ccc(C)c(C)c2)c2ccccc2O1 (centres undefined)	3%	.	1%	8%	.	7%[46.1 µM]	-2%	-4%
CCc1ccc2[nH]c(=O)c(C3C(C#N)=C(N)Oc4c3ccc3cccnc43)cc2c1 (centres undefined)	-3%	-2.5%	17%	-17%	3%	?	-76%	?
Cc1ccc(O)c(C2=Nc3ccccc3C2(C)C)c1	43%[activator]	.	-16%	.	.	.	5%	-2%
Cn1c(SCC(=O)Nc2sccc2C(N)=O)nc2ccccc2c1=O	-26%	.	2%	-15%	.	?	.	9%
CC1CN(c2nc3ccccc3nc2C(C#N)C(=O)NC2CCCCC2)CC(C)O1 (centres undefined)	.	0.4%	.	.	27%	-3%	-25%	8%
Cc1cc(N2CCOCC2)ncc1[N+](=O)[O-]	19%	-4.1%	-13%	-14%	-5%	-5%	-6%	-1%
CC(C)OCCCN(C)C1CCN(S(=O)(=O)c2csc(C(N)=O)c2)CC1	-11%&-10%	1.9%	1%	0%[46.1 µM]	5%	.	-3%	-6%
CCOC(=O)CNC(=O)CSc1nnc(CCc2nc3ccccc3[nH]2)n1C	-5%	.	1%	.	.	.	-42%	-9%
